Assay outcomes: PubChem, National Center for Advancing Translational Sciences (NCATS)
nsP2pro inh – Primary qHTS for inhibitors of NSP2Pro chikungunya virus (CHIKV). Polyprotein P1234 (Chikungunya virus (strain S27-African prototype)), Q8JUX6. FRET peptide cleavage, nsP2pro, fluorescence 1 h. Potency, µM (highest dose often 24.9 µM), inactives show at the top dose activity change, negative = inhibition, actives largely listed as inhibitors. 31,000 tested, 1.1% active; active means well fitted inhibition curve with a large enough effect; inconclusive means small, poorly fitted or top-dose-only effect; inactive means no such curve, though single readings can be large or run the other way; note: nearly all actives have a fitted effect of over 60% in size; a reference inhibitor and vehicle were the controls
An asterisk follows results filed as active; i = inactive; ? = inconclusive; & = joins results of further samples; [ ] = another dose, or the depositor's remark. % is set by controls: 0 for no effect and ±100 for the full control effect; potency is the fitted concentration of half-maximal effect.

| SMILES | nsP2pro inh |
| --- | --- |
| CC(C)(C)NC(=O)Nc1cccc(Nc2ncc(F)c(NC(C)(C)CO)n2)c1 | -3% |
| CCCn1c(-c2ccc(F)cc2)nc2c(NCCCCN(C)C)nc(C)nc21 | 4% |
| COc1ccc(N2CCN(C(=O)C3CCN(S(=O)(=O)c4cccs4)CC3)CC2)cc1 | -15% |
| CCCc1nc(SCc2cc(=O)c3ccc(C)c(C)c3[nH]2)n[nH]1 | -3% |
| C[C@@H]1O[C@@H](O[C@@H]2\C=C/C=C\C=C/C=C\C[C@H](C)OC(=O)/C=C\[C@H]3O[C@@H]3C[C@H](O)C[C@]3(O)C[C@@H](O)[C@@H](C(=O)O)[C@H](C2)O3)[C@H](O)[C@H](N)[C@@H]1O | ? |
| Cn1c(C(=O)N2CCC(C(=O)N3CCN(c4ccccc4)CC3)CC2)cc2sccc21 | 3% |
| O=C(Nc1ccccc1)N1CCC(Oc2ccccc2-c2nc(-c3ccccc3)no2)C1 (centres undefined) | -3% |
| C[C@@H]1[C@H]2[C@H](O[C@@H]3O[C@H](CO)[C@@H](O)[C@H](O)[C@H]3O)OC=C(C(=O)O)[C@H]2C[C@@H]1OC(=O)/C=C/c1ccc(O)cc1 | 71%[activator][10 µM] |
| CC(=O)Nc1ccc(NC(=O)C2CCCN2S(=O)(=O)c2ccc3c(c2)CCCC(=O)N3)cc1 (centres undefined) | -21% |
| O=C(O)c1ccc(O)cc1O | ? |
| CCOCCOC1CCN(C(=O)c2nn(C)c3ccccc23)CC1 | i |
| O=C(C1CCCN([S+](=O)([O-])c2cccc(C(F)(F)F)c2)C1)N1CCC(c2nc3ncccc3[nH]2)C1 (centres undefined) | 4% |

Pulled by compound from the list above (4):
| SMILES | nsP2pro inh |
| --- | --- |
| C[C@@H]1O[C@@H](O[C@@H]2\C=C/C=C\C=C/C=C\C[C@H](C)OC(=O)/C=C\[C@H]3O[C@@H]3C[C@H](O)C[C@]3(O)C[C@@H](O)[C@@H](C(=O)O)[C@H](C2)O3)[C@H](O)[C@H](N)[C@@H]1O | ? |
| O=C(C1CCCN([S+](=O)([O-])c2cccc(C(F)(F)F)c2)C1)N1CCC(c2nc3ncccc3[nH]2)C1 (centres undefined) | 4% |
| C[C@@H]1[C@H]2[C@H](O[C@@H]3O[C@H](CO)[C@@H](O)[C@H](O)[C@H]3O)OC=C(C(=O)O)[C@H]2C[C@@H]1OC(=O)/C=C/c1ccc(O)cc1 | 71%[activator][10 µM] |
| O=C(O)c1ccc(O)cc1O | ? |

Next section.
| SMILES | nsP2pro inh |
| --- | --- |
| Cc1ccc(S(=O)(=O)N2CCCc3cc(NS(=O)(=O)c4ccc(F)cc4)ccc32)cc1 | 0% |
| O=S(=O)(c1ccccc1)N1CCC(F)(c2nc(Cc3ccccc3)no2)CC1 | i |
| COc1ccccc1N1CCN(CCCNC(=O)c2cnn(-c3ccccc3Cl)c2C2CCN(C(=O)OC(C)(C)C)CC2)CC1 | 16% |
| CC(C)c1cc2c(s1)c1cnn(Cc3ccccc3F)c(=O)c1n2C | ? |
| Cc1c(Cl)cccc1NS(=O)(=O)c1ccc(-c2cnc(C3CC3)o2)cc1 | 3% |
| CCC(=O)C(CCN(C)C)(c1ccccc1)c1ccccc1 | -6% |
| COc1ccccc1NC(=O)c1c(NCc2sccc2C)sc2c1CCCCC2 | ? |
| CC(=O)N1Cc2ccccc2NC(=O)C12CCNC2 (centres undefined) | -13%[39.2 µM] |
| CCN1CCN(C(=O)N[C@@H](C(=O)N[C@@H]2C(=O)N3[C@@H]2SC(C)(C)[C@H]3C(=O)O)c2ccccc2)C(=O)C1=O | -5% |
| Cc1c(F)cc(C(=O)NC2CC2)cc1-c1c(F)cn2c(C(C)(C)C)nnc2c1F | 7% |
| CN1C(=O)CN(Cc2ccccc2C#N)C(=O)c2ccccc21 | i |
| CCOc1nc2cccc(C(=O)OCc3oc(=O)oc3C)c2n1Cc1ccc(-c2ccccc2-c2noc(O)n2)cc1 | 8%&-6% |
| COc1ccc(NC(=O)Cn2c(=O)n(CCc3ccccc3)c(=O)c3c4c(sc32)CCCC4)cc1 | -10% |
| CCN(CC)C(=O)[C@@H]1CCC[C@@H](NS(C)(=O)=O)CN(C)C(=O)C1 | -4%[39.2 µM] |
| CCN(Cc1ccccc1)C(=O)Nc1ccc2c(c1)N(C)C(=O)c1ccccc1S2 | -17% |
| CC(C)c1nccn1CCCNC(=O)c1ccc(N2CCCC(CO)C2)nc1 (centres undefined) | ? |
| COC1(O[C@H]2CC[C@H]3[C@@H]4CC[C@H]5C[C@@H]6S[C@@H]6C[C@]5(C)[C@H]4CC[C@]23C)CCCC1 | 2% |
| Cc1ccc(S(=O)(=O)c2c(O)cc(C)c(NS(=O)(=O)c3ccc(Br)cc3)c2C)cc1 | -13% |
| C=CCN1CC[C@]23c4c5ccc(O)c4O[C@H]2[C@@H](OCCOCCOCCOCCOCCOCCOCCOC)CC[C@@]3(O)[C@H]1C5 | 2% |
| Cc1ccc(CNC(=O)C2CCN(S(=O)(=O)N3CCCCC3)CC2)cc1 | -26% |
| CC(C)[C@@H]1CN(C(=O)CCCn2cncn2)C[C@H]1NS(=O)(=O)N(C)C | 1% |
| O=C(O)CCc1nccc2c1[nH]c1ccccc12 | ? |
| Nc1ccccc1C(=O)NCc1ccco1 | 5% |
| C=CC[C@]1(O)CC[C@H]2[C@@H]3CCC4=CCCC[C@@H]4[C@H]3CC[C@@]21C | -2%[39.2 µM] |
| COCCCN(CCC(=O)NCc1ccc2c(c1)OCO2)C(=O)c1cc(C)oc1C | ? |
| O=C(NC1CCCCC1)c1ccc2oc(-c3ccnc(Cl)c3)nc2c1 | -5% |
| COc1ccc(C2=Nn3c(nnc3-c3ccccc3F)SC2)cc1OC | 1% |
| Cn1nccc1-c1cc2c(cn1)CN(Cc1ccncc1)CCN2 | -15%[39.2 µM] |
| Cc1[nH]cnc1CN1CCc2nc(C(=O)NCCOc3ccccc3)oc2CC1 | i |
| CC(C)OC(=O)N1CCC(COc2ccc3c(cnn3CCC(=O)O)c2)CC1 | -2%[39.2 µM] |
| CCCCCOc1ccccc1/C(=C\SC)n1ccnc1 | 45%[activator] |
| Cc1ccc(-c2cc(C(=O)Nc3ccc(-n4cncn4)cc3)c3ccccc3n2)cc1C | i |
| Cc1ccc(-c2cc(NC(=O)C(C)Oc3ccccc3F)on2)cc1 (centres undefined) | 5% |
| CC(C)=CCc1cc2c(cc1O)OC[C@H]1c3ccc(O)cc3O[C@@H]21 | 10% |
| Cc1ccccc1Cn1c(=O)n(CC2CCC(C(=O)N3CCC(C)CC3)CC2)c(=O)c2sccc21 (centres undefined) | -19% |
| Cc1cc(C)c(-c2n[nH]c3c2C(c2ccccc2F)N(Cc2ccco2)C3=O)c(O)c1 (centres undefined) | -1% |

Other entries.
structure | nsP2pro inh
O=S(=O)(c1ccc(Br)cc1)c1nnn2c1nc(Nc1cccc(C(F)(F)F)c1)c1sccc12 | -17%
COc1ccc(-c2n[nH]c3c2CC(=O)N(c2ccccc2)C3)cn1 | -9%[39.2 µM]
Cc1cc2ncc(C(=O)NCc3ccccc3Cl)cn2n1 | -1%[39.2 µM]
Cc1ccc(C)c(Cn2c(=O)n(Cc3ccc(C(=O)NC4CCN(Cc5ccccc5)CC4)cc3)c(=O)c3ccccc32)c1 | -11%
CCN(CC)S(=O)(=O)c1ccc(C(=O)NC2CC(=O)N(c3ccc(OC)c(OC)c3)C2)cc1 (centres undefined) | -13%
COc1ccccc1NC(=O)Cn1c(=O)n(CCc2ccccc2)c(=O)c2c3c(sc21)CN(C(C)=O)CC3 | -19%
COc1cccc(CNc2ccc(S(=O)(=O)Nc3cccnc3)cc2)c1O | 3%
COc1nccnc1NC1CCN(C(=O)Cc2c(C)noc2C)CC1 | 5%
Oc1ccc(C2COc3cc(O)ccc3C2)cc1 (centres undefined) | -15%
Cc1cnc(CCNC(=O)C2CC=CC2)n1C1CC1 | -4%
CC(C)CN1C(=O)c2cccn2CC1C(=O)N(C)Cc1cccnc1 (centres undefined) | 3%
O=C(NC[C@H]1O[C@@H](CC(=O)N2CCN(c3ccccn3)CC2)[C@H](O)[C@@H]1O)c1ccco1 | -20%[39.2 µM]
CCc1nc(-c2ccc(OC3CCN(S(=O)(=O)Cc4ccccc4)C3)cc2)no1 (centres undefined) | i
COC1C(=O)N(CC2CC2)C12CCN(S(=O)(=O)c1ccc3c(c1)OCCO3)CC2 (centres undefined) | i
COC(=O)C(C)Sc1nnc2cc(C)c3cc(C)cc(C)c3n12 (centres undefined) | -24%

Among those listed so far, these contain a furan ring, fused or not.
structure | nsP2pro inh
Nc1ccccc1C(=O)NCc1ccco1 | 5%
COCCCN(CCC(=O)NCc1ccc2c(c1)OCO2)C(=O)c1cc(C)oc1C | ?
Cc1cc(C)c(-c2n[nH]c3c2C(c2ccccc2F)N(Cc2ccco2)C3=O)c(O)c1 (centres undefined) | -1%
O=C(NC[C@H]1O[C@@H](CC(=O)N2CCN(c3ccccn3)CC2)[C@H](O)[C@@H]1O)c1ccco1 | -20%[39.2 µM]

Further structures:
structure | nsP2pro inh
C=C(C)C(=O)O[C@H]1C[C@@](C)(O)C2(O)CCC(C)(/C=C3/OC(=O)C(COC)=C31)O2 (some centres undefined) | ?
CCN1C(=O)CCc2cc(NC(=O)CC(C)C)ccc21 | -3%
CC1CCC2(C)C(CC(O)C(O)C23CO3)C1(C)CCC1=CC(=O)OC1O (centres undefined) | -7%
COc1ncc(-c2ccc3nccc(-c4ccnnc4)c3c2)cc1NS(=O)(=O)c1ccc(F)cc1F | 8%
CC(C)NC(=O)c1ccccc1OCC1CCCN(Cc2ccncc2F)C1 (centres undefined) | ?
O=C(O)/C=C/c1ccccc1 | 9%[39.2 µM]
Cc1cccc(N2CCN(C(=O)c3cnc4c(C)cccn4c3=O)CC2C)c1 (centres undefined) | -11%
CC(O)C/C=C/C=C/C(=O)OC1C=C2COC(=O)C2(O)C2(C)CCCC(C)(C)C12 (centres undefined) | 8%
C[C@@H]1COCCN1c1cc(C2(S(C)(=O)=O)CC2)nc(-c2cccc3[nH]ccc23)n1 | -4%
Cc1cc(-c2ccc(S(=O)(=O)NCc3ccccc3Cl)s2)on1 | -10%
Cc1c(N2C(=O)c3ccc(C(=O)O)cc3C2=O)c(=O)n(-c2ccccc2)n1C | -6%
Cc1cccc(CNc2ccnc(-c3cccc(C(F)(F)F)c3)n2)c1 | -18%
CCCS(=O)(=O)N1C[C@@H](Oc2cccnc2)C[C@H]1C(N)=O | i
CC1(C)CC=C(c2cnc3ccccc3c2)c2cc(C(=O)Nc3ccc(C(=O)O)cc3)ccc21 | 182%[activator]
CC(C)CCN1CCC2CC(=O)NCCC2C1 (centres undefined) | 3%[39.2 µM]
COC(=O)C1(C)CCCC2(C)c3ccc(C(C)C)cc3C(O)C(O)C12 (centres undefined) | 17%
COc1ccc2c(c1)CC(C(=O)N1CCC(C(N)=O)CC1)CO2 (centres undefined) | -3%
COc1ccc(CNC(=O)O[C@H]2COCCN(c3nc4ccccc4s3)C2)cc1 | ?
CCN(CC)c1ccc2cc(-c3nnc(Nc4ccc(C)cc4)s3)c(=O)oc2c1 | -16%
C=C1CCC2C(C)(C)C(O)CCC2(C)C1CCC(C)CCOC(=O)CCC(=O)O (centres undefined) | 7%[10 µM]
CCOc1ccccc1NC(=O)c1cn(C2CCCCC2)c(=O)c2c1c1ccccc1n2C | -17%
CC(C)c1nn2c(=O)cc(COC(=O)c3ccccc3NC(=O)C3CCCCC3)nc2s1 | -12%
O=C(NCCc1nc2ccccc2n1CCCOc1ccc(Cl)cc1)C1CCCCC1 | 4%
CCc1ccc(NC(=O)CN(C)S(=O)(=O)c2ccc3c(c2)c(=O)n(C)c(=O)n3C)cc1 | -14%
COc1ccc2ccc(OCc3nc(C(=O)N4CCCNC(=O)C4)co3)cc2c1 | i
N#Cc1cc2c(=O)n(CCCCN3CCCC3)ccc2[nH]c1=O | -4%
CC1=C[C@@H](CNC(=O)c2cnccn2)[C@H](C(C)C)C[C@H]1CC(=O)O | ?
C[C@H](O)[C@H](O)[C@H]1CNc2nc(N)[nH]c(=O)c2N1 | -3%
c1csc(CN2CCC(Oc3ccccc3-c3nc(-c4cnccn4)no3)C2)c1 (centres undefined) | -4%
COc1ccc(-c2ccc3nc(-c4cc(F)cc(F)c4F)oc3c2)c(OC)c1OC | -4%
CCCC12CN3CC(CCC)(CN(C1)C3c1ccc(OCc3ccccc3)cc1)C2=O (centres undefined) | -17%
Cc1cccc(-c2noc(CCC(=O)N[C@H]3CC[C@H]3NC3CCCC3)n2)c1 | -1%
CC(=O)C1=C(OC(=O)C(C)C)c2ccccc2S(=O)(=O)N1Cc1ccccc1 | -23%
COc1nccnc1NC1CCN(C(=O)NC2CCCC2)CC1 | -2%
Cc1ccc(Cl)cc1N1CCN(C(=O)c2cc(S(=O)(=O)N3CCCC3)c[nH]2)CC1 | -11%
O=C(Cn1cnc2nc3c(cc2c1=O)CCCC3)N1CCN(c2ccccc2)CC1 | 5%
CSc1ccc(-c2ccc(=O)n3c2[C@@H]2C[C@@H](CN(C(=O)Nc4cccc(F)c4)C2)C3)cc1 | ?
CCN(CC)CCNC(=O)C(=O)NCC(c1cccnc1)N1CCN(c2ccc(F)cc2)CC1 (centres undefined) | -27%
O=C(OC1C=C(CO)C2C(OC3OC(CO)C(O)C(O)C3O)OC=CC12O)c1ccc(O)cc1 (centres undefined) | -6%[10 µM]
COC(=O)c1c(NC(=O)CCCOc2ccc(C(C)(C)C)cc2)sc2c1CCC(C)C2 (centres undefined) | 30%
COc1ccc2c(c1)[C@@H]1C[C@]1(C(=O)N1[C@@H]3CC[C@H]1CN(C)C3)Cn1c-2c(C2CCCCC2)c2ccc(C(=O)NS(=O)(=O)N(C)C)cc21 | ?
CC[C@H](O)[C@@H](C)[C@H]1O[C@@H]1C[C@H](C)/C=C/C=C(\C)[C@H]1OC(=O)C[C@H](O)CC[C@@](C)(O)[C@@H](OC(C)=O)/C=C/[C@@H]1C | -11%
O=c1c(O)c(-c2ccc(O)cc2)oc2ccccc12 | 3%
CCC(c1ccccc1)c1noc(CCN(CC)CC)n1 (centres undefined) | -17%

Not all compounds are listed (hit frequency here may not be typical).
